YopH PTP inh = YopH tyrosine phosphatase inhibitors, primary screen, biochemical, fluorescence Ex485/Em525. inhibition, %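 (about 10 µM by stock and volumes)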. 0.16% of 140,000 active. AID 898, 2007. YopH tyrosine phosphatase [Yersinia enterocolitica];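 active = inhibition of 50% or more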;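 also: controls were vehicle for no effect and minimum signal wells for full effect; inactives centre near -20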
RecA intein inh = Mtb RecA intein splicing inhibitors, primary screen, biochemical, fluorescence, HTS; inhibition, %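 (about 9 µM by stock and volumes)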; 0.75% of 290,000 active; cell-free RecA intein splicing; in the data active = inhibition above about 30%; inconclusive = no clear call, values can overlap the other calls;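 also: 0% = vehicle wells and 100% = reference inhibitor control wells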
Target sequence (P9WHJ3 whole entry, looked up): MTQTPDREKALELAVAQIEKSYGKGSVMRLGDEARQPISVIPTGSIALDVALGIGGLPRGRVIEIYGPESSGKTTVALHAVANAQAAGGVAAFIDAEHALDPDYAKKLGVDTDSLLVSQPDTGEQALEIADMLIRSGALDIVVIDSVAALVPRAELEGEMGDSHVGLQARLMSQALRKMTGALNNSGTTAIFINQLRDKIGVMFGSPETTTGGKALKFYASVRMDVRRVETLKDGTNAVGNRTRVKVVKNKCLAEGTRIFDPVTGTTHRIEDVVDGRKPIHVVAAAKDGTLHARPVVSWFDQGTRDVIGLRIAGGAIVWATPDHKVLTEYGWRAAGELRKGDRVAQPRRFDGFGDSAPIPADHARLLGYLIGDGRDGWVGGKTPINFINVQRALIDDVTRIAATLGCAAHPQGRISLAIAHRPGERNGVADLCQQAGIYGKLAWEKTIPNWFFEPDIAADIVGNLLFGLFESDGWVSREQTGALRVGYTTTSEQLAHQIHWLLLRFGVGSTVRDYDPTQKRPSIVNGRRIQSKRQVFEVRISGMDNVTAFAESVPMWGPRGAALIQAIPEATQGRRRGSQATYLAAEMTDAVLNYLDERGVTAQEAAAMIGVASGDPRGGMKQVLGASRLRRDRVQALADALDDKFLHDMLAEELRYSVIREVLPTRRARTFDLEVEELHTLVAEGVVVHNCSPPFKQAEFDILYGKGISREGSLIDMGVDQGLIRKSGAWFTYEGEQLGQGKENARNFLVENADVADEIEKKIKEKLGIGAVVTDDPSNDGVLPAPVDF
Mtb growth = M. tuberculosis H37Rv growth inhibitors, H37Rv strain (AID 1626); M. tuberculosis H37Rv growth inhibition; higher % means a stronger effect; inhibition, % at 10 µM; hits with a dose series show IC50 in µM; 0.95% of 220,000 active;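 active = confirmed in a dose series; inconclusive = inhibition above 80% but not taken into the dose series; inactive = below 80% or under 30% at every dose of the series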;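 also: bacteria incubated seven days before Alamar blue readout; 0% = bacteria only wells and 100% = bacteria with antibiotic wells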
Arbovirus inh = antivirals against arbovirus infection, primary screen, cell-based, full library, 10K replicate subset. arbovirus infection cell-based antiviral screen. inhibition, % at 10 µM. 0.37% of 200,000 active;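 active = inhibition from about 30%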;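 also: bluetongue infection of BSR cells; cell survival read as ATP light after 72 h; 0% = infected wells without compound and 100% = uninfected wells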
Mtb betalactam = beta-lactam sensitization of Mtb H37Rv, H37Rv. M. tuberculosis H37Rv growth with meropenem, percent inhibition; hits of this screen are not shown here. inhibition, % at 25 µM. 0.27% of 330,000 active;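 active = about 74% or more and at least 40 points above the plate without the antibiotic, then above 30% in a dose series; inconclusive = first-round hits that could not be retested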;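 also: growth measured after seven days incubation then overnight dye step; 0% = bacteria only wells and 100% = bacteria with antibiotic; twin plates without the antibiotic show which effects depend on it; some results filed as inactive read as strong as hits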
Arbovirus inh repeat = also measured in Arbovirus inh; calls as there; inhibition, %; measured here: 10K subset replicate screen; many hits read low in the repeat;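 first of two repeat runs on a subset; 0% = infected and 100% = uninfected wells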
* marks the source's active call; other numbers are inactive results. An excerpt; count on the stated rates, not on these rows.

How did COc1ccccc1NC(=O)CSc1nc(O)cc(=O)[nH]1 do in these assays?
YopH PTP inh: -9.2; RecA intein inh: -0.1; Mtb growth: -2.9%; Arbovirus inh: 5.1; Mtb betalactam: -4.6

Results for Cc1cc(N2CCN(Cc3cn(C)nc3-c3ccccc3F)CC2)cc(C)n1 ?
RecA intein inh: 0.1; Mtb growth: 1.7%; Arbovirus inh: -11.6; Mtb betalactam: -3.3

Results for COc1ccc2c(c1)CC/C2=N\OC(=O)c1cccc(C)c1 ?
YopH PTP inh: -22.2; RecA intein inh: 1.2; Mtb growth: 9.2%; Arbovirus inh: -11.8; Mtb betalactam: 5.5

Results for CCn1c2ccccc2c2cc(/C=N/NC(=O)c3cc(O)cc(O)c3)ccc21 ?
RecA intein inh: 5.3; Mtb growth: 8.2%; Arbovirus inh: -12.8; Mtb betalactam: 5.3

What do the screens show for `Cc1c(NC(=O)CSc2nnc(Nc3ccccc3)s2)c(=O)n(-c2ccccc2)n1C`?
YopH PTP inh: -34.1; RecA intein inh: 2.9; Mtb growth: -1.0%; Arbovirus inh: -1.9; Mtb betalactam: -6.4

Results for Cc1nc(C(=O)NNC(=O)c2ccccc2)c(C(F)(F)F)o1 ?
RecA intein inh: -3.3; Mtb growth: 3.5%; Mtb betalactam: 3.9

Results for CCN(CC)S(=O)(=O)c1ccc(C)c(NC(=O)COC(=O)c2ccc(C)c(S(=O)(=O)N3CCOCC3)c2)c1 ?
YopH PTP inh: -0.9; RecA intein inh: 1.3; Mtb growth: 3.0%; Arbovirus inh: -3.0; Mtb betalactam: -15.1

What do the screens show for `COc1ccc(C(=O)c2c[nH]c(C(=O)NCc3cccnc3)c2)cc1`?
YopH PTP inh: -9.0; RecA intein inh: -14.8; Mtb growth: 2.4%; Arbovirus inh: -4.5; Mtb betalactam: 4.3

How did Nc1c(C(=O)N/N=C/c2ccc([N+](=O)[O-])cc2)sc2nnc(-c3ccccc3)c(-c3ccccc3)c12 do in these assays?
RecA intein inh: -0.3; Mtb growth: -2.7%; Mtb betalactam: 4.3

Results for C=CCN1CCc2c(cc(O)c(O)c2Br)[C@@H](c2ccccc2)C1 ?
RecA intein inh: 4.8; Mtb growth: -8.9%; Mtb betalactam: 5.7

How did Cc1ccn(C)c(=N)c1 do in these assays?
RecA intein inh: 0.2; Mtb growth: -15.4%; Mtb betalactam: -2.4

What do the screens show for `Clc1ccc(CNc2nc(N3CCOCC3)nc(N3CCOCC3)n2)cc1`?
YopH PTP inh: -6.9; RecA intein inh: 0.7; Mtb growth: -1.6%; Arbovirus inh: 9.8; Mtb betalactam: 0.5

What do the screens show for `COc1ccc(C(CNC(=O)c2ccc(NS(=O)(=O)c3ccc(F)c(C)c3)cc2)N(C)C)cc1` (stereo not given)?
RecA intein inh: 0.4; Mtb betalactam: 6.0

How did COC(=O)C(C)(C(=O)OC)c1ccc([N+](=O)[O-])cn1 do in these assays?
YopH PTP inh: -30.4; RecA intein inh: -0.4; Mtb growth: 1.7%; Arbovirus inh: -4.6; Mtb betalactam: 4.0

What do the screens show for `CNS(=O)(=O)c1cccc(C(=O)OCc2cc(C(C)=O)ccc2OC)c1`?
RecA intein inh: 0.2; Mtb growth: 4.0%; Arbovirus inh: -3.4; Mtb betalactam: -8.0

How did CCOC(=O)C1CCN(c2ncnc3cc(OC)c(OC)cc23)CC1 do in these assays?
RecA intein inh: -1.9; Mtb growth: -6.0%; Mtb betalactam: -3.5

How did O=C(c1ccc(N2CCN(C(=O)c3ccc(F)cc3F)CC2)cc1)c1cccc(F)c1 do in these assays?
RecA intein inh: 3.1; Mtb betalactam: 10.6

Results for CCCCNC(=S)Nc1cccc(C(C)=O)c1 ?
YopH PTP inh: -32.6; RecA intein inh: 0.6; Mtb growth: 6.3%; Arbovirus inh: 0.1; Mtb betalactam: 10.9

What do the screens show for `COc1ccc(S(=O)(=O)NCCc2ccccc2)c2cccnc12`?
RecA intein inh: -0.3; Mtb betalactam: 2.8

How did Cc1ccc(C)c(OCc2cc(C(=O)N3CCN(c4ccccc4)CC3)no2)c1 do in these assays?
RecA intein inh: -2.3; Mtb betalactam: 77.8

What do the screens show for `COc1ccc(CNC(=O)c2cccnc2SC)cc1OC`?
RecA intein inh: -1.0; Mtb growth: 6.0%; Arbovirus inh: -2.6; Mtb betalactam: -7.2

Results for Cc1ccccc1C(=O)OC1OC(=O)C(Cl)=C1Nc1ccccc1 (stereo not given) ?
RecA intein inh: 11.9; Mtb growth: -3.5%; Arbovirus inh: -11.0; Mtb betalactam: 4.4

How did CCCCN(CC)C(=O)c1ccccc1Oc1ccccc1 do in these assays?
YopH PTP inh: -25.8; RecA intein inh: 3.7; Mtb growth: 12.2%; Arbovirus inh: -4.2; Mtb betalactam: 3.4

How did O=C(Nc1ccc(S(=O)(=O)N2CCOCC2)cc1)C1CCCCC1 do in these assays?
YopH PTP inh: -3.4; RecA intein inh: -0.2; Mtb growth: -0.8%; Arbovirus inh: 5.6; Mtb betalactam: 5.1

How did Cn1c(NC(=O)/C=C/c2ccccc2)cc(=O)n(C)c1=O do in these assays?
YopH PTP inh: -19.1; RecA intein inh: -1.4; Mtb growth: -4.4%; Arbovirus inh: 7.3; Mtb betalactam: 6.9

How did Cc1cc(-c2csc(NC(=O)c3ccc(=O)[nH]c3)n2)c(C)n1Cc1ccccc1 do in these assays?
Mtb growth: 7.5%; Arbovirus inh: -3.4; Mtb betalactam: 6.7

What do the screens show for `COc1ccccc1CNC(=O)Cn1ccc2cc(S(=O)(=O)N3CCCC3)ccc21`?
RecA intein inh: 0.0; Mtb betalactam: -3.6

What do the screens show for `O=C(NC1=NCCS1)c1sc2cc(F)ccc2c1Cl`?
YopH PTP inh: -23.4; RecA intein inh: 3.7; Mtb growth: inconclusive; Arbovirus inh: -8.5; Mtb betalactam: 39.8

Results for Cc1ccc(-c2nc(-c3ccccn3)no2)cc1[N+](=O)[O-] ?
RecA intein inh: 2.2; Mtb growth: -3.4%; Mtb betalactam: -8.2

How did COc1ccc(/C=C2/Sc3ccc(C(=O)NCCCN4CCOCC4)cc3NC2=O)cc1OC do in these assays?
RecA intein inh: -1.8; Mtb betalactam: 0.3

Results for CSc1nc(N2CCOCC2)c2c(c1C#N)CC(C)(C)OC2 ?
YopH PTP inh: -4.7; RecA intein inh: -1.0; Mtb growth: 2.4%; Arbovirus inh: 4.2; Mtb betalactam: -2.0

How did CC(C)C1COC(c2cccc3ccccc23)=N1 (stereo not given) do in these assays?
YopH PTP inh: -18.2; RecA intein inh: 1.7; Mtb growth: 0.6%; Arbovirus inh: 1.8; Mtb betalactam: -0.6

What do the screens show for `COc1ccc(OCC(=O)N2CCN(C(=O)c3ccco3)CC2)cc1`?
YopH PTP inh: -2.0; RecA intein inh: -0.3; Mtb growth: 0.8%; Arbovirus inh: -1.6; Mtb betalactam: 1.0

How did COC(=O)[C@H](C)NC(=O)Nc1ccc(S(N)(=O)=O)cc1 do in these assays?
YopH PTP inh: -31.6; RecA intein inh: -1.8; Mtb growth: 1.5%; Arbovirus inh: 6.0; Mtb betalactam: 1.8

What do the screens show for `COc1ccccc1N1CCN(CCCNC(=O)Nc2ccccc2)CC1`?
YopH PTP inh: -26.5; RecA intein inh: -1.7; Mtb growth: -9.2%; Arbovirus inh: 5.2; Mtb betalactam: -8.8

How did Cc1cc(C)cc(-c2nc(-c3ccncc3)no2)c1 do in these assays?
YopH PTP inh: -38.5; RecA intein inh: 1.4; Mtb growth: 8.7%; Arbovirus inh: 3.1; Mtb betalactam: 13.9; Arbovirus inh repeat: 6.6

What do the screens show for `CN1CCN(S(=O)(=O)c2ccc(NC(=O)c3ccco3)cc2)CC1`?
YopH PTP inh: 17.7; RecA intein inh: 2.3; Mtb growth: -5.9%; Arbovirus inh: 5.6; Mtb betalactam: -3.5

What do the screens show for `COCCn1c(N)c(N(Cc2ccccc2)C(=O)c2cc3ccccc3o2)c(=O)[nH]c1=O`?
RecA intein inh: -0.2; Mtb growth: 6.7%; Arbovirus inh: 2.0; Mtb betalactam: -2.9

What do the screens show for `COc1ccc(-c2nc3c4ccccc4ccn3c2CN2CCOCC2)cc1OC`?
RecA intein inh: 6.4; Mtb growth: -2.6%; Mtb betalactam: -0.6

Results for OCC1(CCOc2ccccc2)CCN(C2Cc3ccccc3C2)CC1 ?
RecA intein inh: -0.8; Mtb growth: 5.6%; Arbovirus inh: -3.3; Mtb betalactam: -12.3

How did O=C(c1ccccn1)C1CCCN(Cc2nc(Cc3cccc(F)c3)no2)C1 (stereo not given) do in these assays?
RecA intein inh: -0.1; Mtb growth: -0.5%; Mtb betalactam: 0.1

How did Cc1ccc(N2C(N)=NC(N)=NC2(C)C)c(C)c1 do in these assays?
YopH PTP inh: -35.6; RecA intein inh: -1.3; Mtb growth: -4.2%; Arbovirus inh: -1.0; Mtb betalactam: 3.3

Results for COC1=CC2(O)CCCC2=CC1=O (stereo not given) ?
RecA intein inh: 2.8; Mtb betalactam: -3.1

How did CCOC(=O)C1=C(c2ccccc2)Nc2c(c(=O)n(C)c(=O)n2C)C1c1ccc(O)c(OC)c1 (stereo not given) do in these assays?
YopH PTP inh: -2.4; RecA intein inh: -1.3; Mtb growth: -0.3%; Arbovirus inh: 16.0; Mtb betalactam: -3.1

How did COc1nc(N)c(C#N)c(-c2ccc(N(C)CCC#N)cc2)c1C#N do in these assays?
RecA intein inh: -16.3; Mtb growth: -1.9%; Mtb betalactam: 15.2

Results for O=C(CSc1nnc(-c2cccc(S(=O)(=O)N3CCOCC3)c2)n1C1CCCCCC1)NCc1ccccc1 ?
YopH PTP inh: 17.0; RecA intein inh: -1.0; Mtb growth: 6.8%; Arbovirus inh: 3.2; Mtb betalactam: 9.2

How did Cc1ccc(C)c(Cn2c3ccccc3c3cnn(CC(=O)NCCCN4CCOCC4)c(=O)c32)c1 do in these assays?
RecA intein inh: 3.8; Mtb betalactam: -3.2

How did CC1CN(C)C(C)C/C1=N/Oc1ccccc1[N+](=O)[O-] (stereo not given) do in these assays?
RecA intein inh: 0.1; Mtb growth: -8.7%; Arbovirus inh: -10.8; Mtb betalactam: -3.2

How did CC1(C)CN=C(NCc2ccccc2Cl)S1 do in these assays?
YopH PTP inh: -97.9; RecA intein inh: -0.6; Mtb growth: -1.7%; Arbovirus inh: -5.6; Mtb betalactam: 0.3

Results for COC(=O)Cn1cc(/C=C(/C#N)C(=O)N2CCOCC2)c2ccccc21 ?
RecA intein inh: 2.3; Mtb growth: -6.9%; Arbovirus inh: 0.9; Mtb betalactam: -4.7

Results for O=C(CC1SC(=O)N(Cc2ccc(Cl)cc2)C1=O)Nc1nccs1 (stereo not given) ?
YopH PTP inh: -26.2; RecA intein inh: -0.9; Mtb growth: -4.2%; Arbovirus inh: -2.8; Mtb betalactam: 1.1

What do the screens show for `CCOC(=O)c1c(NC(=O)COC(=O)Cn2cnc3ccccc32)sc(C)c1C`?
YopH PTP inh: -23.2; RecA intein inh: 1.1; Mtb growth: -5.2%; Arbovirus inh: -3.1; Mtb betalactam: -5.7

Results for CCOC(=O)CCC(=O)Nc1cccc([N+](=O)[O-])c1 ?
YopH PTP inh: 23.9; RecA intein inh: -2.4; Mtb growth: 6.5%; Arbovirus inh: 2.9; Mtb betalactam: -1.4

What do the screens show for `Oc1ccccc1N1CCN(c2nc(-c3cccs3)nc3ccccc23)CC1`?
RecA intein inh: 6.9; Mtb growth: 10.8%; Mtb betalactam: 18.5

What do the screens show for `COc1ccc(N2CCN(C(=S)NCc3ccccc3)CC2)cc1`?
RecA intein inh: -2.3; Mtb growth: 1.0%; Arbovirus inh: -1.7; Mtb betalactam: 0.8

How did COc1ccc(-c2csc3nc(-c4cccnc4)nc(N4CCC(C(N)=O)CC4)c23)cc1OC do in these assays?
YopH PTP inh: -12.9; RecA intein inh: 5.7; Mtb growth: 1.6%; Arbovirus inh: -17.9; Mtb betalactam: 0.7

What do the screens show for `CCCCNC(=O)CC1S/C(=N/N=C/c2ccc(OC)cc2)NC1=O` (stereo not given)?
RecA intein inh: -0.1; Mtb growth: -5.7%; Arbovirus inh: 7.0; Mtb betalactam: -10.5

Screens from PubChem BioAssay.
